# Bioassay records as filed in PubChem.
# YopH PTP inh: inhibitors of Yersinia enterocolitica YopH tyrosine phosphatase. AID 898. inhibition, %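 (about 10 µM by stock and volumes)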. 140,000 compounds, 0.16% hits. fluorescence Ex485/Em525;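 active means inhibition of 50% or more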;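 further: controls were vehicle for no effect and minimum signal wells for full effect; inactives centre near -20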
# RecA intein inh: inhibitors of M. tuberculosis RecA intein splicing | cell-free RecA intein splicing, fluorescence | 290,000 compounds, 0.75% hits | inhibition, %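 (about 9 µM by stock and volumes)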; in the data active means inhibition above about 30%;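 further: 0% = vehicle wells and 100% = reference inhibitor control wells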
# Target sequence (P9WHJ3 whole entry, looked up): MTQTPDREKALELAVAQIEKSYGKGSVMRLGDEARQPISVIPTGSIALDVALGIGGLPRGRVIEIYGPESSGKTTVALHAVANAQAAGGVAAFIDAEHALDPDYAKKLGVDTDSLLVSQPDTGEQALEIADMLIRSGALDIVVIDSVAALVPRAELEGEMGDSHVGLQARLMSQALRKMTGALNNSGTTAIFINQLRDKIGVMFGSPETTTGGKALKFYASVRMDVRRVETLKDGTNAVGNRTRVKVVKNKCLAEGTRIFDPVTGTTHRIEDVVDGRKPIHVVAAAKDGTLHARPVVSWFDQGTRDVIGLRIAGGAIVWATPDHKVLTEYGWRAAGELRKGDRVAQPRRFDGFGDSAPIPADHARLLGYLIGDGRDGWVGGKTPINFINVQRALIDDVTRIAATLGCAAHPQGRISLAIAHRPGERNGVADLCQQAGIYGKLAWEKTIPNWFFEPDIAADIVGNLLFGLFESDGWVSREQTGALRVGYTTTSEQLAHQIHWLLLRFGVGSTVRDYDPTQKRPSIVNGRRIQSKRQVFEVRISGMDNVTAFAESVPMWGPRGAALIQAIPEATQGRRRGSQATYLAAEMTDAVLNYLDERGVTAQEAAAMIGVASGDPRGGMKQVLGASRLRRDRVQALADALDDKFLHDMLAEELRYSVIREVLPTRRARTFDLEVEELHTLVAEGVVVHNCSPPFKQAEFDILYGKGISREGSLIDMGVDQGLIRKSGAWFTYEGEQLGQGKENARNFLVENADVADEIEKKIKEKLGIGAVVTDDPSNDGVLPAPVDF
# Mtb growth: M. tuberculosis H37Rv growth inhibitors, H37Rv strain (AID 1626). M. tuberculosis H37Rv growth inhibition; higher % means a stronger effect. inhibition, % at 10 µM; hits with a dose series show IC50 in µM. 220,000 compounds, 0.95% hits;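 active means confirmed in a dose series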;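 further: bacteria incubated seven days before Alamar blue readout; 0% = bacteria only wells and 100% = bacteria with antibiotic wells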
# Mtb betalactam: beta-lactam sensitization of Mtb H37Rv; M. tuberculosis H37Rv growth with meropenem, percent inhibition; hits of this screen are not shown here; inhibition, % at 25 µM; 330,000 compounds, 0.27% hits;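 active means about 74% or more and at least 40 points above the plate without the antibiotic, then above 30% in a dose series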;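 further: growth measured after seven days incubation then overnight dye step; 0% = bacteria only wells and 100% = bacteria with antibiotic; twin plates without the antibiotic show which effects depend on it; some results filed as inactive read as strong as hits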
# Arbovirus inh: arbovirus infection inhibition | arbovirus infection cell-based antiviral screen | 200,000 compounds, 0.37% hits | inhibition, % at 10 µM;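 active means inhibition from about 30%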;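 further: bluetongue infection of BSR cells; cell survival read as ATP light after 72 h; 0% = infected wells without compound and 100% = uninfected wells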
# Active calls of the source: *; · = no result given. An excerpt; rates above refer to the full screens.
(1) Cc1cc(C)nc(Sc2ccc3nnnn3n2)n1
(2) Nc1nnc(SCC(=O)Nc2ccccc2N2CCOCC2)s1
(3) O=C(CSc1nnc(Cc2cc(=O)[nH]c(=O)[nH]2)n1-c1ccc(Cl)cc1)NCC1CCCO1 (centres undefined)
(4) O=c1nc(NCc2ccco2)sc2ncccc12
(5) O=C(Nc1ccc(NC(=O)c2ccco2)cc1)c1cnccn1
(6) O=C(O)c1cc(N/N=C/c2ccc(N3CCOCC3)s2)ccc1Cl
(7) O=C(c1cn(-c2ccccc2)nc1-c1cccc([N+](=O)[O-])c1)N1CCCCC1
(8) CCCCn1cc(C(=O)c2cc(Br)ccc2O)cc(C#N)c1=O
assay / compound	1	2	3	4	5	6	7	8
Mtb betalactam	3.3	-8.6	-0.5	6.7	-3.6	0.4	-6.6	6.7
Mtb growth	0.7%	·	-10.1%	-7.7%	-2.4%	-3.7%	15.2%	8.9%
Arbovirus inh	-3.2	4.2	5.6	0.6	2.6	4.9	1.8	5.4
RecA intein inh	0.6	1.5	·	-1.5	2.3	-7.7	-0.6	0.6
YopH PTP inh	-3.7	3.9	-50.7	-34.5	-52.8	-14.0	·	22.1

(9) CC(C)NC(=O)NC(=O)CN1C(=O)NC(Cc2c[nH]c3ccccc23)C1=O (centres undefined)
(10) c1ccc(CN=C2Nc3ccccc3CS2)nc1
(11) CCOC(=O)c1c(NC(=S)N2CCN(C)CC2)sc(C)c1-c1ccccc1
(12) COc1cccc(-n2c(=O)n(Cc3ccccc3)c(=O)c3[nH]cnc32)c1
(13) CC(C)CC1(C)N=C(c2ccccc2)C(=S)N1 (centres undefined)
(14) COc1ccc(Cc2n[nH]c(=S)n2NC(=O)Nc2ccc(Cl)c(Cl)c2)cc1
(15) COc1ccc(CNC(=S)Nc2ccc(F)c(Cl)c2)cc1OC
(16) CC1CC1C(=O)Nc1nc(-c2cccs2)c(-c2cccs2)s1 (centres undefined)
assay / compound	9	10	11	12	13	14	15	16
Mtb betalactam	-6.4	70.4	97.0	-1.1	3.2	11.0	4.1	·
Mtb growth	6.1%	77.2%	·	9.8%	-6.4%	30.4%	0.3%	2.5%
Arbovirus inh	4.6	-4.7	·	·	4.3	·	-1.0	3.9
RecA intein inh	-0.3	-0.9	7.7	1.3	-0.3	0.9	-2.5	18.9
YopH PTP inh	·	·	·	·	·	·	·	-23.1

(17) CS(=O)(=O)Nc1cccc(C2=NN(C(=O)c3ccccc3Cl)C(c3ccccc3O)C2)c1 (centres undefined)
(18) Cc1ccc2c(CN3CCN(S(=O)(=O)/C=C/c4ccccc4)CC3)cc(=O)oc2c1
(19) O=C(NC1CCS(=O)(=O)C1)c1ccc(S(=O)(=O)NCC2CCCO2)cc1 (centres undefined)
(20) CCCC(=O)NC(c1cccs1)c1cc(Cl)c2cccnc2c1O (centres undefined)
(21) CC(=O)Nc1ccc(NC(=O)C(C)OC(=O)/C=C/c2cn(-c3ccccc3)nc2-c2cccnc2)cc1 (centres undefined)
(22) CCOc1ccccc1C(=O)NC(CO)C(=O)O (centres undefined)
(23) O=C(CC(NS(=O)(=O)c1ccc(Cl)cc1)c1ccco1)N1CCc2ccccc21 (centres undefined)
(24) COC(=O)c1ccccc1NC(=O)CSc1n[nH]c(-c2ccco2)n1
assay / compound	17	18	19	20	21	22	23	24
Mtb betalactam	7.3	-5.1	-5.2	5.0	1.5	-1.3	11.4	0.4
Mtb growth	0.8%	6.2%	-7.3%	3.8%	5.2%	3.9%	-0.9%	·
Arbovirus inh	-16.0	-1.4	13.8	-15.8	-1.2	-1.2	9.9	·
RecA intein inh	10.3	5.7	-0.6	-1.2	-1.4	-2.0	1.2	2.8
YopH PTP inh	-9.0	-5.5	-7.5	·	-20.1	-21.6	-8.6	·

(25) CCCC[C@H](CN[C@@H](CNC)[C@H](C)CC)NCCC12CCC(CC1)C2
(26) CC(=O)c1ccc(N2CCN(C(=O)C3CCCN(S(=O)(=O)c4cnc[nH]4)C3)CC2)cc1 (centres undefined)
(27) CCOC(=O)Cc1csc(NC(=O)Cc2ccc(Cl)cc2)n1
(28) CNC(=O)c1cccc2cccc(Sc3ccccc3C(=O)O)c12
(29) c1ccc(C2CCC(N3CCN(c4ccccc4)CC3)CC2)cc1 (centres undefined)
(30) O=C(CN1C(=O)COc2ccccc21)NCc1ccccn1
(31) COc1ccc(/C=N/Nc2nc(C(=O)O)cs2)cc1
(32) COCCCNC(=O)c1ccc(C2SCC(=O)N2Cc2ccco2)cc1 (centres undefined)
assay / compound	25	26	27	28	29	30	31	32
Mtb betalactam	82.8	-9.1	60.5	-15.2	4.7	-8.6	-3.1	-2.9
Mtb growth	·	-11.4%	5.4%	-3.9%	·	8.3%	·	-6.3%
Arbovirus inh	·	5.2	·	·	·	-3.2	·	8.5
RecA intein inh	0.7	-3.9	-1.2	1.0	2.1	-0.9	-3.9	-1.1
YopH PTP inh	·	-15.9	·	·	·	-42.5	·	·

# 12 structures out of the list, arranged by formula weight, falling.
(17) CS(=O)(=O)Nc1cccc(C2=NN(C(=O)c3ccccc3Cl)C(c3ccccc3O)C2)c1 (centres undefined)
(14) COc1ccc(Cc2n[nH]c(=S)n2NC(=O)Nc2ccc(Cl)c(Cl)c2)cc1
(7) O=C(c1cn(-c2ccccc2)nc1-c1cccc([N+](=O)[O-])c1)N1CCCCC1
(6) O=C(O)c1cc(N/N=C/c2ccc(N3CCOCC3)s2)ccc1Cl
(20) CCCC(=O)NC(c1cccs1)c1cc(Cl)c2cccnc2c1O (centres undefined)
(2) Nc1nnc(SCC(=O)Nc2ccccc2N2CCOCC2)s1
(27) CCOC(=O)Cc1csc(NC(=O)Cc2ccc(Cl)cc2)n1
(28) CNC(=O)c1cccc2cccc(Sc3ccccc3C(=O)O)c12
(5) O=C(Nc1ccc(NC(=O)c2ccco2)cc1)c1cnccn1
(30) O=C(CN1C(=O)COc2ccccc21)NCc1ccccn1
assay / compound	17	14	7	6	20	2	27	28	5	30
Mtb betalactam	7.3	11.0	-6.6	0.4	5.0	-8.6	60.5	-15.2	-3.6	-8.6
Mtb growth	0.8%	30.4%	15.2%	-3.7%	3.8%	·	5.4%	-3.9%	-2.4%	8.3%
Arbovirus inh	-16.0	·	1.8	4.9	-15.8	4.2	·	·	2.6	-3.2
RecA intein inh	10.3	0.9	-0.6	-7.7	-1.2	1.5	-1.2	1.0	2.3	-0.9
YopH PTP inh	-9.0	·	·	-14.0	·	3.9	·	·	-52.8	-42.5

(31) COc1ccc(/C=N/Nc2nc(C(=O)O)cs2)cc1
(1) Cc1cc(C)nc(Sc2ccc3nnnn3n2)n1
assay / compound	31	1
Mtb betalactam	-3.1	3.3
Mtb growth	·	0.7%
Arbovirus inh	·	-3.2
RecA intein inh	-3.9	0.6
YopH PTP inh	·	-3.7

# Further compounds follow:
(33) CC1CN(S(=O)(=O)c2ccc(F)cc2)C(C)N1C(=O)N1CCOCC1 (centres undefined)
(34) Cc1ccc(CC2CC(=O)N(c3nc4ccccc4n3C)C2=O)cc1 (centres undefined)
(35) Cc1ccc(S(=O)(=O)N2CCCCC2)cc1C(=O)NC1CCCCC1
(36) Cc1onc(-c2ccccc2)c1C(=O)N1CCN(Cc2ccc3c(c2)OCO3)CC1
(37) CCOc1ccc2[nH]cc(C(=O)NCCCN3CCOCC3)c(=O)c2c1
(38) O=C(NNc1ncnc2c1cnn2-c1ccccc1)c1cccs1
(39) CCN(CC)S(=O)(=O)c1ccc(N2CCCC2)c(C(=O)Nc2ccc(OC)c(Cl)c2)c1
(40) CCCc1cc(-c2ccc(O)c(OCC)c2)c(C#N)c(N)n1
assay / compound	33	34	35	36	37	38	39	40
Mtb betalactam	-12.0	19.4	1.9	-8.2	0.3	-1.8	0.1	-3.3
Mtb growth	·	3.1%	·	-4.9%	2.4%	-5.2%	0.3%	-6.0%
Arbovirus inh	·	12.5	·	-8.5	7.9	21.5	2.2	-5.8
RecA intein inh	-3.6	-0.6	-1.9	·	-0.4	4.5	-2.2	·
YopH PTP inh	·	-27.1	·	·	·	·	-23.1	-20.1

(41) CC(C)(C)c1ccc(C2CC2C(=O)N/N=C\c2cc3ccccc3nc2Cl)cc1 (centres undefined)
(42) CCOC(=O)CN1C2=NCCCN2c2ccccc21
(43) CC(=O)Nc1cccc(C(=O)Oc2cccc(C)c2)c1O
(44) CCCCn1c(SCc2nnc(-c3ccccc3)o2)nc2c1c(=O)n(C)c(=O)n2C
(45) CC(C)c1nc2sc3c(NCc4ccco4)ncnc3c2c2c1COC(C)(C)C2
(46) CC(=O)c1c(C)[nH]c(C(=O)OCC(=O)Nc2ccc(Cl)c(S(=O)(=O)N(C)C)c2)c1C
(47) FC(F)(F)c1cccc(NC(=S)NC2CCCC2)c1
(48) Cc1nc2ccccc2n1CC(=O)NCCN1CCOCC1
assay / compound	41	42	43	44	45	46	47	48
Mtb betalactam	14.5	6.9	-6.7	5.8	15.4	2.7	42.3	4.8
Mtb growth	4.8%	3.1%	-3.4%	3.7%	5.7%	2.3%	9.8%	12.1%
Arbovirus inh	7.5	6.1	5.6	0.4	5.0	·	-1.0	-4.3
RecA intein inh	1.9	3.2	1.7	·	0.8	·	5.2	2.2
YopH PTP inh	12.6	·	-2.5	-37.8	2.3	·	-34.1	-14.3

(49) CC1=C(C(=O)Nc2ccc(CC(=O)NCc3ccccc3C)cc2)SCCO1
(50) COc1c(C(O)CC(C)C)ccc2c1C(=O)OCc1cc(C)cc(O)c1O2 (centres undefined)
(51) CC1CCC2(CC1)NC(=O)N(CC(=O)Nc1sc3c(c1C(N)=O)CCC3)C2=O (centres undefined)
(52) CCCOc1ccc(C(=O)NC(=S)NNC(=O)c2c(-c3ccccc3)noc2C)cc1
(53) COc1ccc(C(=O)Nc2ccc3ccccc3c2)cc1
(54) CCOC(=O)N1CCC(NC(=O)c2cccs2)CC1
(55) FC(F)(F)c1ccc(Cl)c(-n2c(-c3cc(-c4ccco4)[nH]n3)n[nH]c2=S)c1
(56) NS(=O)(=O)c1ccc(N2N=C(c3ccccc3)CC2c2ccccc2)cc1 (centres undefined)
assay / compound	49	50	51	52	53	54	55	56
Mtb betalactam	-6.9	-5.9	-6.5	-3.5	-5.0	-1.6	7.8	20.3
Mtb growth	·	-2.4%	-6.8%	59.1%	·	2.0%	-0.1%	9.0%
Arbovirus inh	·	9.3	10.9	·	·	·	·	-31.9
RecA intein inh	2.3	-2.2	-4.1	1.0	-0.6	0.8	6.3	-43.0
YopH PTP inh	·	·	·	·	·	·	·	-20.0

(57) NNc1nc(Nc2ccc([N+](=O)[O-])cc2)nc(N2CCCCCC2)n1
(58) Cc1ccc(NC(=O)C(C)Sc2nc(-c3ccccc3)cc(=O)[nH]2)cc1 (centres undefined)
(59) CCN1CCN(c2ncc3c(n2)CC(c2ccc(OC)c(OC)c2)CC3=O)CC1 (centres undefined)
(60) CC(C)c1ccc(NC(=O)C2C3C=CC4(O3)C2C(=O)N(CCCN2CCOCC2)C4C(=O)NC2CCCCC2)cc1 (centres undefined)
(61) CC(C)NC(=O)Cn1nc(C(F)(F)F)c2c1CCC2
(62) CCCN(c1nc(C)cc(OC)n1)S(=O)(=O)c1ccccc1
(63) OCc1cccc[n+]1Cc1ccccc1
(64) Oc1ccc(N=Nc2ccc3c(c2)OCCO3)c(O)c1
assay / compound	57	58	59	60	61	62	63	64
Mtb betalactam	98.0	-6.6	1.5	-0.3	-20.3	14.1	-3.6	-4.3
Mtb growth	·	·	-11.9%	·	-4.6%	7.0%	·	1.4%
Arbovirus inh	·	·	-20.9	·	-2.1	-7.8	·	·
RecA intein inh	0.2	-0.9	-0.2	1.2	-20.3	-1.9	-0.5	5.0
YopH PTP inh	·	·	-7.1	·	-15.7	-19.6	·	·

(65) CCCOc1ccc2c3c(c(=O)oc2c1OCCC)CCCC3
(66) CCOC(=O)c1cnc2ccc(OCC)cc2c1NCc1ccccc1
(67) Cc1ccc2c(c1)N(CC(=O)Nc1ccccc1F)C(=O)CO2
(68) CC(Nc1ccc(Br)cn1)c1cc(Cl)ccc1O (centres undefined)
(69) N/C(=N\OC(=O)c1ccccc1Cl)c1cccc([N+](=O)[O-])c1
(70) O=C(COc1ccc(S(=O)(=O)NC2CCCCC2)cc1)NC1CCCCC1
(71) CCCCNCC1CCCO1 (centres undefined)
(72) Cc1c(NC(=O)COC(=O)CCc2c[nH]c3ccccc23)c(=O)n(-c2ccccc2)n1C
(73) COc1ccc(NC(=O)CSCc2ccc(C)cc2)cc1
assay / compound	65	66	67	68	69	70	71	72	73
Mtb betalactam	97.3	86.9	-3.0	·	36.0	-10.1	1.4	-15.4	83.5
Mtb growth	30.6%	15.7µM*	·	·	·	-5.2%	-12.6%	·	26.5µM*
Arbovirus inh	-11.6	-27.9	·	-21.6	·	13.6	·	·	-1.4
RecA intein inh	8.3	5.9	-3.0	20.8	3.1	-0.6	0.3	0.1	1.8
YopH PTP inh	-11.7	-23.2	·	-4.3	·	0.2	·	·	·
